PABP polyA inh – PABP-poly(A) binding inhibition. P11940. hit rate 1% among 290,000. inhibition, % at 35 µM. PABP-poly(A) RNA binding, fluorescence polarization;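 active = 50% or more with normal probe brightness, or confirmed in later tests; inconclusive = above 50% with abnormal brightness, or retests that disagree; inactive = below 50% or failed in later tests; about a fifth of its hits are not listed in these tables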;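 also: calls also rest on retests at 20 µM and on dose response follow-up; controls were probe without protein and protein plus probe with vehicle; some compounds called inactive have numbers as strong as hits; many hits fall short of the cut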
Target sequence (P11940 whole entry, looked up): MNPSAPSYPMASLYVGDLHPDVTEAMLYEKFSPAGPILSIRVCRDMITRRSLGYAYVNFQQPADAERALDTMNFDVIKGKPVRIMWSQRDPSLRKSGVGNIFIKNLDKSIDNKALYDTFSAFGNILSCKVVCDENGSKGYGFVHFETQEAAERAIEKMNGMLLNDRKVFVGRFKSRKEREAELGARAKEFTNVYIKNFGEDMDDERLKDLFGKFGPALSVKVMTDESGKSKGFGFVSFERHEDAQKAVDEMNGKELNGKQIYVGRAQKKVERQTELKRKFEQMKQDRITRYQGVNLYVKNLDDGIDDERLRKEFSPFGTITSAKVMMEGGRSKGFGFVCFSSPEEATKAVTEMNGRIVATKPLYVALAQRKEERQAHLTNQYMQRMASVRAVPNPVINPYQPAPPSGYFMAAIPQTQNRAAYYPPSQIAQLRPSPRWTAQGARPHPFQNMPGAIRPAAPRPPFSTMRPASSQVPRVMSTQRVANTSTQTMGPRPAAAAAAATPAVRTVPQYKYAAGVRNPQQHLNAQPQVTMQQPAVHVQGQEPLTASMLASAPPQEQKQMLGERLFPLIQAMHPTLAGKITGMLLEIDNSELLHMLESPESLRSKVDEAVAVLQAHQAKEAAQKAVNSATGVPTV
Env fusion inh – HIV envelope-mediated fusion inhibition; HeLa-JRFL Env/CEM21 cell fusion, luciferase; inhibition, % at 12.3 µM; hit rate 1.1% among 360,000;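 active = mean replicate inhibition score of at least 50 and every replicate individually at or above 50; inconclusive = only one of the two criteria met; inactive = mean below 50 and not all replicates reaching 50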;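 also: 0% = plate neutral controls and 100% = maraviroc near 300 nM; one replicate is shown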
Rce1 inh – inhibitors of yeast Ras-converting enzyme; Q03530; yeast membranes, quenched prenylated peptide cleavage fluorescence; calls only; hit rate 0.27% among 290,000; AID 2563;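 active = fall in fluorescence gain of 50% or more versus controls, with final raw signal at or below 3038400; inconclusive = same 50% fall but final raw signal above 3038400; inactive = fall in fluorescence gain under 50%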;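 also: plate controls were neutral control wells for no effect and wells lacking membranes for full effect; tested at 10 µM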
Target sequence (Q03530 whole entry, looked up): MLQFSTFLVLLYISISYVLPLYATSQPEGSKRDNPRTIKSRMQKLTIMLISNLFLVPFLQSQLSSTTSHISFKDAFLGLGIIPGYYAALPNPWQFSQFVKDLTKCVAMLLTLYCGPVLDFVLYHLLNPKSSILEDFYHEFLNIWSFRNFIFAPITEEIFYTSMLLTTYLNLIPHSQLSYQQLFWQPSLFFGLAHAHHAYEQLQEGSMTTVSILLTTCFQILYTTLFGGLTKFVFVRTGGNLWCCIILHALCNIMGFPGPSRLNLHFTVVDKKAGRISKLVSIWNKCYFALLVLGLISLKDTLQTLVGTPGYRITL
CSC inhib – blocks cancer stem cells | hit rate 1.1% among 300,000 | cancer stem cell-like cells viability, luminescence | inhibition, % at 7.5 µM | AID 2717;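 active = mean at 75% or more and at least half the replicates too; inconclusive = mean and replicates disagree; tested in HMLE shEcad cells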;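 also: 0% = median of negative and 100% = median of positive control wells; the first replicate is given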
MT1-MMP act inh – blocks activation of human MT1-MMP; HT1080 RFP-PRO-GFP cells, GFP/RFP ratio fluorescence, overnight; percent of plate control window, DMSO zero; GFP/RFP ratio change, % at 20 µM; hit rate 0.061% among 360,000;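 active = GFP/RFP ratio change of at least 30% with cell ATP level not reduced by more than half and red fluorescence within 50% of control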; also: strong numbers were not always called active
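Test system: HT1080 RFP-PRO-GFP cells; Benchmarks: DMSO and RFP-L50D-GFP cell wells; Timing: cells overnight before dosing, compound overnight, 37 °C, 5% CO2; Compound: one 20 µM compound dose with 1% DMSO; Read-out: GFP/RFP fluorescence ratio.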
UUG fidelity – modulators of start codon recognition fidelity in yeast | S. cerevisiae UUG-firefly luciferase reporter, luminescence/redox ratio | activity score, % at 18.7 µM | hit rate 0.13% among 350,000 | AID 602363;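 active = replicate mean at a twofold rise or more, about +100% in these data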;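 also: firefly luciferase made from a UUG start codon reports start codon fidelity; reporter light over untreated wells divided by growth signal over untreated wells; some hits fall short of that in this replicate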
eIF4H inh – inhibitors of RNA binding by human eIF4H; inhibition, % at 35 µM; Q15056; hit rate 0.94% among 290,000; eIF4H fluorescence polarization binding assay;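 active = 50% or more with normal probe brightness, or confirmed in later tests; inconclusive = above 50% with abnormal brightness, or retests that disagree; inactive = below 50% or failed in later tests; about a fifth of its hits are not listed in these tables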;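 also: calls also rest on retests at 20 µM and on dose response follow-up; 0% = protein and probe with vehicle and 100% = probe without protein; strong numbers were not always called active; many hits fall short of the cut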
eIF4H inh retest – recorded beside eIF4H inh, whose call it bears; inhibition, %; compound at 20 µM; confirmation average;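 mean of two retest wells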
PABP polyA inh retest – also measured in PABP polyA inh; calls as there; inhibition, %; compound at 20 µM; confirmation repeats;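 mean of two retest wells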
MT1-MMP act inh RFP – further read-out of MT1-MMP act inh, marked with its call; RFP signal change, %; measured here: RFP expression control read;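 0 = vehicle wells; hits needed this value within 50% of zero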
Active calls of the source: *; i = inactive; ? = inconclusive; . = not tested or not shown; & = joins results of further samples. The list is partial (hit frequency here may not be typical).

SMILES | PABP polyA inh | Env fusion inh | Rce1 inh | CSC inhib | MT1-MMP act inh | MT1-MMP act inh RFP | UUG fidelity | eIF4H inh | others
COc1ccccc1NC(=O)Cn1c(=O)n2nc(C)nc2c2ccccc21 | -2 | -16 | i | 0 | 5 | 8 | -13 | -10
Cc1csc(=Nc2ccccc2)n1CCO | 7 | -7 | i | 1 | -1 | 1 | . | 0
O=C(CSc1nnc2ccccn12)Nc1ccc2c(c1)OCO2 | -7 | 14 | i | -2 | 1 | 5 | . | 4
CCN(CC(=O)Nc1c(F)cccc1F)C(=O)/C=C/c1cn(Cc2ccccc2)nc1-c1cccnc1 | 14 | . | i | . | -4 | -3 | -12 | 39
CC(=O)N1CCC2(CC1)C/C(=N\NC(=S)Nc1ccccc1C)c1cc(O)ccc1O2 | 86 | 14 | i | 2 | -5 | -7 | -31 | 8.5* | eIF4H inh retest=82*;PABP polyA inh retest=40
O=C1C(=O)N(c2ccccn2)C(c2ccc(F)cc2)/C1=C(/O)c1ccc(Br)cc1 (stereo unspecified) | 10 | -21 | i | 6 | -1 | -1 | -2 | 8
O=C(NCc1ccco1)Nc1ccc([N+](=O)[O-])cc1 | 1&44 | -32 | . | 3 | 5 | 1 | -2 | -4&-13
Cc1ccc(-n2nc(C)c3c(=O)[nH]c(C(F)(F)F)nc32)cc1 | -12 | . | i | -5 | . | . | . | -10
CC(C)Cn1cnc2c(c1=N)C(c1ccccc1)C1=C(CC(C)(C)CC1=O)O2 (stereo unspecified) | -1 | 7 | i | 0 | -3 | -4 | . | 4
O=C(N/N=C/c1cccc(Oc2ccccc2)c1)c1ccccc1Br | -9 | . | i | . | -10 | -10 | -2 | -5
O=[N+]([O-])c1ccc(NN=Cc2cc(Br)ccc2O)nc1 | . | -7 | . | . | 6 | -7 | -23 | .
S=c1[nH]nc(COc2ccccc2)n1/N=C/c1ccccn1 | 3 | . | i | 0 | -1 | 2 | -15 | -6
COc1ccc(/C=C2\SC(=O)N(CCNC(=O)C3CC(=O)N(c4ccccc4)C3)C2=O)cc1 (stereo unspecified) | -1 | 7 | i | -7 | 5 | 1 | . | 4
O=C1c2ccccc2S(=O)(=O)N1CC(O)COc1ccc(Br)cc1 (stereo unspecified) | 1 | 53 | . | -8 | 6 | 3 | -10 | 6
O=C(CSc1nnc(C2CC2)n1Cc1ccccc1)Nc1cccnc1Cl | 8 | 18 | i | -29 | -1 | 0 | . | -9
COC(=O)c1cc(NC(=O)c2c(-c3c(Cl)cccc3Cl)noc2C)ccc1N1CCOCC1 | 3 | 23 | i | -9 | -3 | -2 | . | -6
COc1ccc(CCNC(=O)CSc2nc3[nH]ncc3c(=O)n2-c2ccccc2OC)cc1OC | -4 | -6 | i | 4 | 2 | 5 | . | -7
O=C(CNC(c1ccccc1)c1ccccc1)NCc1ccccc1Cl | -2 | 43 | i | 7 | 0 | -1 | 8 | -11
O=C(CSc1nc2ncccc2[nH]1)NCc1ccccc1 | 4 | -2 | i | -6 | -5 | 2 | -17 | 1
CCCOc1ccc(-c2nnn(CC(=O)N3CCCC(C)C3)n2)cc1 (stereo unspecified) | 2 | -12 | i | -9 | 4 | -20 | -13 | -7
COC(=O)C1=C(C(=O)OC)SC2(S1)C(C(=O)OC)=C(C(=O)OC)SC1=C2c2cc(C)ccc2NC1(C)C | 3 | . | i | -6 | -2 | 3 | -6 | -2
COc1cnn(-c2cccc(Cl)c2)c(=O)c1Cl | . | 22 | i | -14 | 2 | 4 | . | .
CCN(CC)CCN1CNC(=S)NC1 | . | 14 | . | . | 0 | -4 | -13 | .
COc1ccc(NC(=O)N2CCCC(C(=O)Nc3ccccc3OC)C2)cc1 (stereo unspecified) | -2 | 4 | i | . | 5 | 5 | -2 | -5
Cc1onc(-c2ccccc2Cl)c1C(=O)OCC(=O)N1CCC(C)CC1 | . | . | . | -15 | -1 | -1 | -1 | .

Next section:
SMILES | PABP polyA inh | Env fusion inh | Rce1 inh | CSC inhib | MT1-MMP act inh | MT1-MMP act inh RFP | UUG fidelity | eIF4H inh | others
Cc1cc(C(=O)N2CCc3ccccc3C2)n[nH]1 | 4 | -7 | i | -2 | 1 | 3 | -36 | -1
CS(=O)(=O)NCCCNc1ccc(C(F)(F)F)cc1[N+](=O)[O-] | -3 | 4 | i | -9 | 4 | 4 | . | -12
Cc1cc(C)c(CN2CCC(n3nccc3NC(=O)C3CCCC3)CC2)cc1C | -11 | -16 | i | 25 | 3 | 1 | -3 | -5
CS(=O)(=O)N1CCC(C(=O)Nc2cc(Cl)cc(Cl)c2)CC1 | 19 | 15 | i | 0 | -2 | -1 | . | -3
O=C(N/N=C/c1ccc(OCc2ccccc2)cc1)c1ccc(O)cc1 | -16 | 0 | i | . | 3 | 0 | -21 | -6
O=S(=O)(NCCc1csc(-c2ccccc2)n1)c1cccnc1 | -14 | 13 | i | -6 | 3 | 0 | 2 | -6
Cc1cc(C)n(-c2ccc(NC(=O)C3CCCCN3C(=O)c3sccc3C)cc2)n1 (stereo unspecified) | 0 | -6 | . | 2 | 2 | 0 | -13 | -4
Cc1ccccc1NC(=S)NNC(=O)c1ccoc1C | 2 | . | i | -3 | 0 | 5 | -19 | 1
CCOc1cccc2sc(Cl)nc12 | 2 | -9 | i | -9 | -3 | 3 | -13 | -12
COc1cc(C=NNc2nc3c([nH]2)c(=O)n(C)c(=O)n3C)ccc1O | . | 3 | . | . | 2 | 0 | -14 | .
Cc1cccc(C)c1N=Cc1c(C(F)(F)F)[nH][nH]c1=O | 1 | -17 | i | -11 | 1 | 7 | -9 | -4
CCCCNC(=O)C1(C)CCCCN1C(=O)c1cccs1 (stereo unspecified) | . | 0 | . | . | 3 | 5 | -7 | .
COc1ccc(Cc2nnc(NS(=O)(=O)c3ccc(Cl)cc3)s2)cc1OC | 19 | 9 | i | 22 | -3 | 2 | . | 1
CCOc1ccc(CCNC(=O)CCn2ccc3cc(S(=O)(=O)N4CCCC4)ccc32)cc1 | 2 | -3 | i | -8 | -1 | -11 | 10 | -14
Nc1ncc(Br)cc1S(=O)(=O)NCCC(=O)NCCc1ccc(Cl)cc1 | . | 8 | i | 11 | -1 | -5 | -9 | .
CCn1c(Cc2ccc(OC)cc2)nnc1SCC(=O)NC1CCCCC1 | -13 | . | i | -1 | 1 | 3 | -12 | -4
c1ccc(Nc2ccnc(Nc3ccccc3)n2)cc1 | 13 | -53 | i | 43 | 0 | -18 | 3 | 1
O=C(O)CCC1(CCC(=O)O)c2ccccc2-c2ccccc21 | 1 | 6 | i | -5 | 0 | 2 | -5 | -9
CC(C)(CO)N=C1NS(=O)(=O)c2cc([N+](=O)[O-])ccc21 | -4 | . | i | -9 | 1 | 2 | . | -3
Cn1nc(C(F)(F)F)c(CN2CC(C)(C)C2=O)c1N1CCOCC1 | -15 | -10 | i | -15 | -4 | -3 | -12 | -13
CC(=O)c1cccc(NC(=O)NNC(=O)CCC(=O)Nc2ccc(C)c(C)c2)c1 | -1 | -22 | i | -25 | 0 | 2 | . | 3
Cn1cc(CN2CCN(CC(C)(C)C)C(CCO)C2)c2ccccc21 (stereo unspecified) | -1 | 17 | i | -2 | 1 | 6 | -17 | 6
CCN(CC)c1ccc(S(=O)(=O)N2CCOCC2)cc1NC(=O)COC(=O)c1ccco1 | . | 8 | i | -9 | 6 | 2 | . | .
CCCn1nc(C(=O)NNC(=O)c2ccc(OC(F)F)cc2)c2ccccc2c1=O | . | . | . | 4 | 2 | 4 | -3 | .
O=C(CN1C(=O)CCC1=O)NNc1ccc2ccccc2c1 | ? | 8 | i | 14 | -2 | 3 | 22 | ?

(next part)
SMILES | PABP polyA inh | Env fusion inh | Rce1 inh | CSC inhib | MT1-MMP act inh | MT1-MMP act inh RFP | UUG fidelity | eIF4H inh | others
O=C(Nc1c(F)cccc1F)C(c1ccccc1)c1ccccc1 | . | 2 | . | -8 | 4 | 6 | -26 | .
CC(C)N1CCC(=NNC(=O)c2ccc(Br)o2)CC1 | 26 | . | i | -9 | 2 | -1 | -23 | -8
CCCC(=O)Nc1ccc(C(=O)n2ccc(C)n2)cc1 | 4 | 4 | i | -1 | -2 | -2 | -14 | 5
N#Cc1cccc(OC(=O)C2CCN(C(=O)c3ccc(F)cc3)CC2)c1 | . | 15 | . | . | -2 | 4 | -5 | .
CC(=O)c1c(N(C)C)ccnc1C(F)(F)F | -10 | -372 | i | 5 | -2 | 5 | 5 | 3
N#Cc1c(NC(=O)Cn2cnc3ccccc3c2=O)oc(-c2ccccc2)c1-c1ccccc1 | -8 | . | i | 9 | 3 | 0 | -11 | -5
CCOc1ccc(/C(O)=C2/C(=O)C(=O)N(CCOCCO)C2c2ccc(F)cc2)cc1 (stereo unspecified) | 3 | . | i | . | -1 | 8 | -17 | -5
Cc1ccc(NC(=O)CNCCCN2CCOCC2)cc1S(=O)(=O)N1CCCCC1 | 12 | -48 | i | -9 | 5 | 4 | -3 | 4
Cc1nn(C(C)(C)C)c(N)c1-c1ccccc1 | 1 | 0 | i | -11 | 0 | 3 | . | -4
Cc1ccc(S(=O)(=O)Nc2cccc(C(=O)NCCCN3CCCC3=O)c2)cc1F | . | -27 | i | -4 | 15 | -6 | -18 | .
COc1cccc(CN(C)C(=O)c2cc(S(=O)(=O)N3CCN(c4ccccc4)CC3)ccc2Cl)c1 | -2 | 24 | i | -7 | -6 | -23 | -10 | -12
CSc1ncccc1C(=O)N1CCN(S(=O)(=O)c2ccc(C)cc2)CC1 | -8 | 10 | i | -5 | 2 | 3 | -7 | 44
Cc1ccc(NC2CCCN(C(=O)c3cn4cc(Cl)ccc4n3)C2)cc1C (stereo unspecified) | 9 | 18 | i | . | 3 | 0 | -14 | -1
O=S(=O)(CCc1nc2ccccc2o1)c1ccc(Cl)c(Cl)c1 | 4 | . | i | -4 | 3 | 3 | -16 | 4
Cc1ccccc1-c1noc(-c2ccc(Cl)cc2)n1 | -4 | -38 | i | -4 | 2 | 1 | -13 | 5
Cc1cc(C(=O)Nc2nc3ccc(Cl)cc3s2)nn1C | -9 | -147 | i | 9 | 4 | -3 | -7 | -1
Cc1ccccc1NC(=O)CSc1nn2c(=O)c(C)nnc2s1 | 11 | -3 | i | -15 | 8 | 5 | -15 | 0
COc1cccc(NC(=O)CN(C)C(=O)CCCc2nc3ccccc3s2)c1 | . | 22 | i | -1 | 2 | -2 | -8 | .
CC(=O)c1sc(NC(=O)c2ccc(Cn3cc(Br)cn3)o2)nc1C | 22 | . | i | -4 | 2 | 3 | -20 | 17
CCOC(=O)C1CCN(CC(=O)Nc2c(C(=O)OC)[nH]c3cccc(C)c23)CC1 | -6 | . | i | -16 | 6 | 5 | 5 | 7
O=[N+]([O-])c1cc2c(cc1[N+](=O)[O-])OCCOCCOCCOCCO2 | 1 | 15 | i | -4 | -2 | 4 | . | -12
C=CCOc1ccc(/C=C/C(=O)OCC(=O)N2CCN(C(C)=O)CC2)cc1 | . | 15 | . | -3 | 4 | 7 | . | .
O=S(=O)(Nc1cccc(S(=O)(=O)N2CCOCC2)c1)c1ccc2c(c1)OCCO2 | 10 | 24 | i | -14 | -1 | -5 | . | -2
COc1ccccc1CN1CCCCCC1 | 1 | -5 | i | -2 | 8 | 6 | 0 | 2
COc1ccc2c(c1)CC/C(=C/c1cc(OC)c(OC)c(OC)c1)C2=O | 4 | 5 | i | -5 | 1 | -11 | . | 5
O=C(Nc1ccc(Oc2ccc(Br)cc2)cc1)C1=CC=CN2CCS(=O)(=O)N=C12 | . | -1 | . | . | 3 | -5 | -6 | .

Bioassay records as filed in PubChem BioAssay.
